Screens as filed in PubChem BioAssay.
Mtb H37Rv: M. tuberculosis H37Rv growth inhibitors, H37Rv strain (AID 1626). inhibition, % at 10 µM, or IC50 in µM where a hit was titrated. M. tuberculosis H37Rv growth inhibition; higher % means a stronger effect. hit rate 0.95% among 220,000;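 active = confirmed in a dose series; inconclusive = inhibition above 80% but not taken into the dose series; inactive = below 80% or under 30% at every dose of the series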;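 also: bacteria incubated seven days before Alamar blue readout; 0% = bacteria only wells and 100% = bacteria with antibiotic wells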
RecA splice inh: Mtb RecA intein splicing inhibition. hit rate 0.75% among 290,000. inhibition, %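 (about 9 µM by stock and volumes)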. cell-free RecA intein splicing, fluorescence; in the data active = inhibition above about 30%; inconclusive = no clear call, values can overlap the other calls;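 also: 0% = vehicle wells and 100% = reference inhibitor control wells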
Target sequence (P9WHJ3 whole entry, looked up, canonical isoform): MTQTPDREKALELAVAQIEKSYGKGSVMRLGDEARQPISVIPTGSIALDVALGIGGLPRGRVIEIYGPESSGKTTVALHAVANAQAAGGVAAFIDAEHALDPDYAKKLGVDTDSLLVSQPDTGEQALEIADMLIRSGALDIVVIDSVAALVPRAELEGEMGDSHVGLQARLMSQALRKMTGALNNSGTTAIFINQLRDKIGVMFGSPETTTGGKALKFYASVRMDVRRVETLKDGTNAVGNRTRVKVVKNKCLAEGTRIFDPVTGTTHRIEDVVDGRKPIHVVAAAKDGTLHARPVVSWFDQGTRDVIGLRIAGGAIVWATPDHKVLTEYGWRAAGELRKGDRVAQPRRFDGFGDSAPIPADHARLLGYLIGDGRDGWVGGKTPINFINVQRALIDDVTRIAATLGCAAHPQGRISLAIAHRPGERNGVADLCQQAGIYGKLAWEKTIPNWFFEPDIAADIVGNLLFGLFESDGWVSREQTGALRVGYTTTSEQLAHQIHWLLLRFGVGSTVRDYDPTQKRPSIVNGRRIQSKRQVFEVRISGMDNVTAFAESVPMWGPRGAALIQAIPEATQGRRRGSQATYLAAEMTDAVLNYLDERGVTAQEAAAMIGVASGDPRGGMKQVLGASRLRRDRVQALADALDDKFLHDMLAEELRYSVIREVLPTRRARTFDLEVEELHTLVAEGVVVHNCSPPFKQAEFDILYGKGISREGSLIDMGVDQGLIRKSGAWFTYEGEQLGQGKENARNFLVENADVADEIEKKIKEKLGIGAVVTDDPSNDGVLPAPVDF
Mtb betalactam: beta-lactam sensitization of Mtb H37Rv; M. tuberculosis H37Rv growth with meropenem, percent inhibition; hits of this screen are not shown here; inhibition, % at 25 µM; hit rate 0.27% among 330,000;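 active = about 74% or more and at least 40 points above the plate without the antibiotic, then above 30% in a dose series; inconclusive = first-round hits that could not be retested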;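 also: growth measured after seven days incubation then overnight dye step; 0% = bacteria only wells and 100% = bacteria with antibiotic; twin plates without the antibiotic show which effects depend on it; some results filed as inactive read as strong as hits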
Arbovirus anti: arbovirus infection inhibition; hit rate 0.37% among 200,000; arbovirus infection cell-based antiviral screen; inhibition, % at 10 µM;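 active = inhibition from about 30%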;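 also: bluetongue infection of BSR cells; cell survival read as ATP light after 72 h; 0% = infected wells without compound and 100% = uninfected wells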
YopH inh: YopH (Yersinia) phosphatase inhibition; hit rate 0.16% among 140,000; fluorescence Ex485/Em525; inhibition, %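 (about 10 µM by stock and volumes)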;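 active = inhibition of 50% or more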;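 also: controls were vehicle for no effect and minimum signal wells for full effect; inactives centre near -20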
Arbovirus anti repeat: recorded beside Arbovirus anti, whose call it bears; inhibition, %; measured here: 10K subset replicate screen; many hits read low in the repeat;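 first of two repeat runs on a subset; 0% = infected and 100% = uninfected wells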
* = called active by the depositor; ? = inconclusive; / = no result given. Some of the compounds tested, so the mix of outcomes need not match the whole.

SMILES | Mtb H37Rv | RecA splice inh | Mtb betalactam | Arbovirus anti | YopH inh | others
COc1ccc2cc(-c3nc4ccccc4n3C)c(=O)oc2c1 | -7% | -36 | 12 | 6 | -24
COc1ccc(N(Cc2ccccc2)S(=O)(=O)c2ccc(C)cc2)cc1 | -2% | 5.2 | -6 | 19 | /
Cc1cc(NC(=O)c2cc(-c3ccccn3)nc3ccc(Br)cc23)no1 | / | 0.2 | 3 | / | /
CC(=O)N1CCc2cc(C(=O)CN3CCCCC3)ccc21 | / | -0.8 | 2 | -1 | -21 | Arbovirus anti repeat=-2
COc1ccc(NC(=O)CCNS(=O)(=O)c2ccc(C)c(C)c2)cc1OC | / | -0.3 | 0 | / | /
NC(=O)CSc1nc(-c2ccccc2)c(-c2ccccc2)o1 | 3% | 1.5 | -1 | -6 | -23
CCCNC(=S)N1CCC(NC(=O)Nc2ccc(C)cc2)CC1 | -5% | 5.3 | -1 | 1 | /
S=C(Nc1ccc(Cl)cc1)N1CCCC1 | 5% | -2.4 | -2 | -1 | -15
O=C(Nn1cc(C(=O)N2CCN(c3ccccc3F)CC2)c2ccccc2c1=O)c1cnccn1 | / | -1.6 | ? | -6 | -21
COC(=O)C1=C(C)N(C(C)C)C(=O)C1(NC(=O)C1CCCCC1)C(F)(F)F (centres undefined) | -2% | -4.4 | -1 | 14 | -16
COC(=O)/C(=N\Nc1ccc(Cl)cc1)Sc1nnc(-c2ccc(OC)cc2)n1C | 1% | -1.8 | 1 | -5 | -31
CNC(=O)C1CC(=O)N(c2ccc(F)c(Cl)c2)C1 (centres undefined) | -10% | 0.7 | -12 | -2 | -32
O=C(CCc1nnc2n(Cc3ccccc3)c(=O)c3ccccc3n12)NCCN1CCOCC1 | / | 2.6 | 0 | / | /
Cn1c(NC(=O)c2ccccc2F)cc(=O)n(C)c1=O | -2% | -0.6 | -5 | 5 | -2 | Arbovirus anti repeat=4
CCOC(=O)C(Cc1ccccc1)C(=O)Nc1nccs1 (centres undefined) | 2% | 6.5 | -5 | 1 | -40
CCCN(c1ccc(C(C)C)cc1)S(=O)(=O)c1c(C)[nH]c(=O)[nH]c1=O | 1% | 3.7 | -6 | 2 | -8
COc1ccccc1NS(=O)(=O)c1cc(-c2cc(C)no2)ccc1OC | / | 3.0 | 2 | / | /
CC(C)Oc1ccc(/C=N/NC(N)=S)cc1 | 70% | 3.2 | 94 | -10 | -6
COc1ccc(Cl)cc1NC(=O)CN1CCC(NC(=O)C2CC2)CC1 | / | 1.9 | 1 | / | /
Cc1ccc(NC(=O)CCC(=O)NNC(=S)Nc2ccccc2)c(C)c1 | -10% | 1.5 | -3 | 0 | /
Cc1ccc(CN2CCN(/N=C/c3cccnc3)CC2)c(C)c1 | 1% | -0.1 | 0 | -7 | -28
O=C(Cn1c2c(c(=O)n3ncnc13)CCC2)N/N=C/c1ccc(Cl)cc1 | -18% | -1.6 | -9 | / | /
Cc1cc(C)n(CCC(=O)N=Nc2c(O)[nH]c3ccc(Br)cc23)n1 | 0% | 2.3 | -7 | / | /
CCOc1ccc(-c2nnn(CC(=O)Nc3cccc(OC)c3)n2)cc1OCC | 16% | -1.4 | 0 | -1 | -28
CCn1cnc2c1c(=O)n(CC(=O)Nc1ccc3c(c1)OC(F)(F)O3)c(=O)n2Cc1ccccc1 | -6% | -0.9 | 2 | -38 | -7

An excerpt of the results above, as a working copy:
SMILES | Mtb H37Rv | RecA splice inh | Mtb betalactam | Arbovirus anti | YopH inh | others
COc1ccc2cc(-c3nc4ccccc4n3C)c(=O)oc2c1 | -7% | -36 | 12 | 6 | -24
COc1ccc(N(Cc2ccccc2)S(=O)(=O)c2ccc(C)cc2)cc1 | -2% | 5.2 | -6 | 19 | /
Cc1cc(NC(=O)c2cc(-c3ccccn3)nc3ccc(Br)cc23)no1 | / | 0.2 | 3 | / | /
CC(=O)N1CCc2cc(C(=O)CN3CCCCC3)ccc21 | / | -0.8 | 2 | -1 | -21 | Arbovirus anti repeat=-2
COc1ccc(NC(=O)CCNS(=O)(=O)c2ccc(C)c(C)c2)cc1OC | / | -0.3 | 0 | / | /
NC(=O)CSc1nc(-c2ccccc2)c(-c2ccccc2)o1 | 3% | 1.5 | -1 | -6 | -23
CCCNC(=S)N1CCC(NC(=O)Nc2ccc(C)cc2)CC1 | -5% | 5.3 | -1 | 1 | /

Next entries follow.
SMILES | Mtb H37Rv | RecA splice inh | Mtb betalactam | Arbovirus anti | YopH inh | others
C/C(=N\NC(=O)c1cccc2ccccc12)c1cccs1 | / | -2.4 | -8 | / | /
COc1ccc(/C=C(\C#N)C(=O)Nc2ccc3[nH]c(=O)[nH]c3c2)cc1 | -8% | -4.5 | 0 | / | /
Cc1nc(C)n(CC(O)COc2ccc3ccccc3c2)n1 (centres undefined) | 4% | -5.3 | 0 | 5 | 26
CC(C)CCNC(=O)C(c1ccco1)N(C(=O)Cn1nnc2ccccc21)c1ccc2c(c1)OCO2 (centres undefined) | -3% | -0.2 | -6 | 0 | 3
CC1CCCCN1CC(=O)c1ccc2cc[nH]c2c1 (centres undefined) | / | 6.0 | -6 | 1 | -44 | Arbovirus anti repeat=-4
CCn1c(CNC(=O)C23CC4CC(CC(C4)C2)C3)nnc1SCC(=O)Nc1nnc(C)s1 | -1% | -7.8 | -8 | 5 | -44 | Arbovirus anti repeat=0
COc1ccc(Cn2c(=O)[nH]c3cc(C(=O)N4CCN(c5ccc(OC)cc5)CC4)ccc3c2=O)cc1 | / | -0.7 | -4 | / | /
COc1nc(Cc2ccc(Cl)cc2)nc2ccccc12 | 0% | 0.9 | 5 | -15 | /
O=C(Nc1cc(C(F)(F)F)ccc1N1CCCC1)c1cccnc1 | -3% | -2.2 | -5 | -4 | -1
COc1ccc(C)cc1S(=O)(=O)Nc1cccc(C)c1 | 4% | -2.1 | -1 | -8 | /
COc1ccc(NC(=O)C2CCCN(c3nn4c(=O)cc(C)nc4s3)C2)c(OC)c1 (centres undefined) | / | 4.4 | -5 | / | /
CC(Oc1ccc(Cl)cc1Cl)C(=O)NCCCN1CCOCC1 (centres undefined) | 5% | -0.3 | 1 | -4 | / | Arbovirus anti repeat=3
CN(C)CCCN(Cc1cc2cc3c(cc2[nH]c1=O)OCO3)C(=S)Nc1cccc(Cl)c1 | 2% | -0.3 | -2 | -34 | /
CC(=O)c1ccc(N2CCN(C(=S)Nc3ccc(Oc4ccccc4)cc3)CC2)cc1 | 5% | 1.1 | 60 | -13 | /
O=C(COc1ccccc1)Nc1nc2cc3c(cc2s1)OCO3 | / | -3.8 | ? | / | /
O=C(C(c1ccccc1)c1ccccc1)N1CCC(c2nc(-c3ccccc3Cl)no2)CC1 | -9% | 5.3 | 4 | -12 | 33
Cc1ccc(C)c(CN2CCC(CNC(=O)CCc3nnc4ccc(N5CCC(C)CC5)nn34)CC2)c1 | / | -8.2 | -1 | / | /
COc1ccc(/C=N/NC(=O)COc2cc(C)cc(C)c2)cc1COC(C)=O | -2% | -1.1 | -3 | 2 | -21
CCC(=O)N1CCc2cc(S(=O)(=O)N3CCN(C(=O)c4ccco4)CC3)ccc21 | ? | -0.1 | -8 | -2 | -5
COC(=O)c1cccc(C23CC4(C2)[C@H](CN(Cc2ccc(-c5ccccc5)cc2)[C@@H]4c2ccccc2)C3c2ccccc2)c1 (some centres undefined) | -2% | -3.8 | -9 | / | /
CC(C)=C(NC(=O)c1ccccc1)C(=O)NCc1ccccc1 | -4% | 2.5 | -3 | 11 | /
O=C(NCc1ccccn1)Nc1ccc(Br)cc1Cl | / | 1.1 | -8 | / | /
Cc1cc(C)nc(CCNC(=O)c2cc(COc3ccccc3)on2)n1 | / | -4.6 | 2 | / | /
COc1ccccc1CC(=O)O/N=C(\N)Cc1cccc2ccccc12 | -8% | 9.2 | 0 | 1 | -24
CCOC(=O)NC(Nc1ccc(OC)cc1)(C(F)(F)F)C(F)(F)F | ? | 5.3 | 91 | -6 | -20

3 structures from above, ordered by length of the SMILES, ascending.
SMILES | Mtb H37Rv | RecA splice inh | Mtb betalactam | Arbovirus anti | YopH inh | others
COc1ccc(C)cc1S(=O)(=O)Nc1cccc(C)c1 | 4% | -2.1 | -1 | -8 | /
O=C(Nc1cc(C(F)(F)F)ccc1N1CCCC1)c1cccnc1 | -3% | -2.2 | -5 | -4 | -1
CCC(=O)N1CCc2cc(S(=O)(=O)N3CCN(C(=O)c4ccco4)CC3)ccc21 | ? | -0.1 | -8 | -2 | -5

(continued)
SMILES | Mtb H37Rv | RecA splice inh | Mtb betalactam | Arbovirus anti | YopH inh | others
CCCCCSc1nnc2c(n1)OC(C)N(C(C)=O)c1ccccc1-2 (centres undefined) | 1% | -11 | 2 | 16 | / | Arbovirus anti repeat=1
CC(NC(=O)Nc1ccccn1)N1C(=O)C2C3C=CC(C3)C2C1=O (centres undefined) | -5% | 1.4 | -3 | -4 | 2
CCCOC(=O)c1ccc(Oc2cn[nH]c2-c2ccc(OC)cc2O)cc1 | / | -2.2 | -1 | -25 | -32
COc1cccc(CN2CCC(C(=O)N3CCN(Cc4ccc5c(c4)OCO5)CC3)CC2)c1OC | / | -0.2 | -3 | / | /
COc1ccc(NS(=O)(=O)c2cc(Br)cc3c2N(C(C)=O)CC3)cc1 | / | -0.3 | 0 | / | /
O=C(COC(=O)C1(c2ccccc2F)CCCC1)NC1CCS(=O)(=O)C1 (centres undefined) | -3% | -3.3 | -11 | 11 | 10 | Arbovirus anti repeat=1
O=C(c1ccccc1)c1cccn1CC(=O)N1CCc2ccccc2C1 | 7% | -2.3 | 6 | -2 | /
CN(C)C=NC1=NN(c2cccc(C(F)(F)F)c2)CC1 | 78% | -4.6 | 99 | -9 | -34
Cc1nnc(SCc2c(Cl)cccc2[N+](=O)[O-])s1 | -2% | -2.9 | -7 | -12 | /
COc1ccc(/C=N/NC(=O)CC(=O)NC2CCCCC2)cc1 | -14% | -0.6 | -5 | 3 | /
COc1ccc(NS(=O)(=O)c2ccc(S(=O)(=O)N3CCOCC3)cc2)cc1 | -1% | -2.3 | -5 | 10 | /
Cc1cccc(-c2nc(N)nc(N)n2)c1 | 0% | -1.7 | -3 | / | /
COc1ccc2c(c1)CCc1sc(NC(=O)c3ccc(C)cc3)nc1-2 | -10% | -1.8 | 20 | 7 | 5
CCCC(=O)N1CCN(c2nc3ccc(CC)cc3s2)CC1 | / | -2.5 | 10 | / | /
CCOC(=O)c1cnn(C)c1NC(=O)c1ccc(Cl)cc1Cl | / | 2.7 | 4 | / | /
CCN1C(=NCc2ccccc2)N[C@@H](c2ccccc2)[C@H](C(=O)OC)[C@H]1C | / | 0.3 | -5 | / | /
COC1=C(OC)c2ccccc2C(C(=O)O)N/C1=C(/C)Nc1ccncc1 (centres undefined) | -3% | -0.9 | -6 | 4 | 3 | Arbovirus anti repeat=-3
O=C(NCc1ccccn1)C1CC(c2ccc(Cl)c(Cl)c2)=NO1 (centres undefined) | 6% | 4.8 | -2 | -7 | 7
Cn1c(N)c(C(=O)COC(=O)/C=C/c2ccc(OC(F)F)cc2)c(=O)n(C)c1=O | -17% | -0.3 | -2 | -3 | /
O=C1NC(=Nc2ccc3ccccc3c2)S/C1=C/c1ccco1 | 72% | 4.3 | 73 | 11 | /
O=C(Nc1ccccc1C(=O)O)c1ccc(NC(=O)C2CC2)cc1 | / | -2.2 | -2 | / | /
Cc1occc1C(=O)N/N=C/c1c(O)ccc2ccccc12 | / | -14 | -1 | / | /
O=[N+]([O-])c1cc(C(F)(F)F)cc([N+](=O)[O-])c1N1CCN(S(=O)(=O)c2ccccc2)CC1 | 1% | 3.4 | 3 | 6 | -24
O=C1/C(=C\c2ccc([N+](=O)[O-])cc2)CCc2ccccc21 | 15% | / | -3 | -1 | -35
CC(C)C(=O)NCCc1c[nH]c2ccccc12 | -8% | -0.3 | -7 | 2 | -26
CCOc1ccc(C(C)=O)cc1N1C(=O)C2C3C=CC(O3)C2C1=O (centres undefined) | -1% | -1.0 | -18 | 1 | 15
O=C(NS(=O)(=O)c1ccc(NC(=O)C2CCCO2)cc1)c1ccccc1 (centres undefined) | 4% | -1.4 | -2 | -4 | -14
O=C(Nc1ccc([N+](=O)[O-])cc1)Nc1cnccn1 | / | 1.6 | 0 | / | /
COc1ccc(CCC(=O)c2ccc(OC)cc2)cc1 | / | 6.0 | 33 | / | /
Cc1sc2nc(CSC(C)C(=O)N3CCOCC3)[nH]c(=O)c2c1C (centres undefined) | / | -7.4 | 1 | / | /

In the list so far, 2 contain a thiophene ring, fused or not:
SMILES | Mtb H37Rv | RecA splice inh | Mtb betalactam | Arbovirus anti | YopH inh | others
C/C(=N\NC(=O)c1cccc2ccccc12)c1cccs1 | / | -2.4 | -8 | / | /
Cc1sc2nc(CSC(C)C(=O)N3CCOCC3)[nH]c(=O)c2c1C (centres undefined) | / | -7.4 | 1 | / | /
